Screens: PubChem BioAssay, Broad Institute
FGF22 binding – binders of recombinant human FGF22 by thermal shift. calls only at 9.99 µM. SYPRO orange fluorescence; percent of sucrose octasulfate shift, DMSO zero. Q9HCT0. 1.5% of 340,000 active;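 active means melting point raised past a set limit in the mean and every replicate; three in four hits are not shown here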
Target sequence (Q9HCT0 whole entry, looked up): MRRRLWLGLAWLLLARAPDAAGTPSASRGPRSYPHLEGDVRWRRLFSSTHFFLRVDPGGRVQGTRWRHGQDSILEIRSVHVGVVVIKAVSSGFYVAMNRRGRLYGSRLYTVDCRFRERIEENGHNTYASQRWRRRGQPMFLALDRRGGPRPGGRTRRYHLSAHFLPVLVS
rRNA inh HTS – selective bacterial rRNA inhibition in E. coli; GFP signal change (wild-type ribosome), % (concentration not given with the values); 1.6% of 350,000 active; E. coli WT GFP vs humanized-ribosome RFP mutants, fluorescence, 24 h; hits give low values; DMSO median 0, no signal -100;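 active means significant combined selectivity score with lowered wild-type GFP, culture density cut under 30%, mutant RFP and density less affected; inactive means any of these conditions unmet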; further: one replicate is shown; some compounds called inactive have numbers as strong as hits
rRNA inh HTS OD600 – further read-out of rRNA inh HTS, marked with its call; OD600 change, %; measured here: OD600 growth;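 optical density of the mix in the first replicate; 0 = DMSO median and -100 = no signal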
rRNA inh HTS RFP – recorded beside rRNA inh HTS, whose call it bears; RFP signal change, %; measured here: RFP humanized mutant strains;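 first replicate; 0 = DMSO median and -100 = no signal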
Numbers without * were called inactive; i = inactive; nt = not tested or not shown. Some of the compounds tested, so the mix of outcomes need not match the whole.

rRNA inh HTS	FGF22 binding	rRNA inh HTS RFP	rRNA inh HTS OD600	Structure
5	i	1.1	10	Cc1noc(C)c1NC(=O)Nc1ccc2c(c1)CC(=O)N([C@H](C)CO)C[C@H](C)[C@H](CN(C)CC1CC1)O2
-1	i	-2.8	7	C[C@@H]1CN([C@H](C)CO)C(=O)c2cc(NC(=O)CCC(F)(F)F)ccc2O[C@@H]1CN(C)Cc1ccccc1
-1	i	0.0	13	C[C@@H]1CN([C@H](C)CO)C(=O)c2cc(NC(=O)Nc3ccc4c(c3)OCO4)ccc2O[C@@H](C)CCCCO[C@H]1CN(C)Cc1ccncc1
-3	i	1.4	-8	C[C@@H]1CN([C@@H](C)CO)C(=O)Cc2cc(NC(=O)C3CCCCC3)ccc2O[C@@H]1CN(C)Cc1ccc2c(c1)OCO2
-6	i	4.7	-8	CN1c2ccc(-c3ccc(C#N)cc3)cc2[C@@H]2[C@@H](CCN2C(=O)c2cccc(F)c2)[C@H]1CO
-2	i	-0.7	13	O=C(C[C@H]1CC[C@@H]2[C@H](COC[C@@H](O)CN2S(=O)(=O)c2ccccc2)O1)NCCN1CCCCC1
-4	i	2.6	-11	O=C(N[C@H]1CC[C@@H](CCNS(=O)(=O)c2cccc(Cl)c2)O[C@H]1CO)c1ccc(F)cc1
-3	i	0.8	-3	COc1ccc(S(=O)(=O)Nc2cccc3c2O[C@H](CN(C)S(=O)(=O)c2ccc(C)cc2)[C@H](C)CN([C@@H](C)CO)C3=O)cc1
3	i	-1.5	5	CCCC(=O)Nc1ccc2c(c1)C(=O)N(C)[C@@H]1CC[C@@H](CC(=O)NCCCN(C)C)O[C@H]1CO2
3	i	-0.5	4	CN(C)CC(=O)N1[C@H](CO)[C@H](c2ccc(C#CC3CCCC3)cc2)[C@@H]1C#N
-1	i	-0.7	-5	CO[C@@H]1CN(C)C(=O)c2cc(NS(C)(=O)=O)ccc2OC[C@@H](C)N(CC2CCCCC2)C[C@H]1C
0	i	0.7	3	C[C@@H]1CCCCO[C@@H](CN(C)Cc2ccc(Cl)c(Cl)c2)[C@H](C)CN([C@@H](C)CO)C(=O)c2cc(N(C)C)ccc2O1
-3	i	1.3	-4	O=C(C[C@H]1CC[C@H](NC(=O)CCN2CCCCC2)[C@@H](CO)O1)NCc1ccc(Cl)c(Cl)c1
2	i	-0.3	10	CS(=O)(=O)Nc1ccc2c(c1)[C@@H]1C[C@@H](CC(=O)NCc3ccc(Cl)cc3)O[C@H](CO)[C@@H]1O2
-2	i	2.4	0	CNC[C@@H]1Oc2ccc(NS(=O)(=O)c3ccc(OC)cc3)cc2C(=O)N([C@@H](C)CO)C[C@H]1C
-3	i	0.9	-6	CCCNC(=O)C[C@H]1CC[C@@H]2[C@H](COC[C@@H](O)CN2C(=O)c2cc(Cl)cc(Cl)c2)O1
-7	i	22	-44	O=C(Nc1cccc(F)c1)N1CCCCN2[C@H](CO)[C@H](c3ccc(C#CC4CC4)cc3)[C@@H]2C1
2	i	1.4	6	C[C@@H]1CN([C@@H](C)CO)C(=O)Cc2cc(NS(C)(=O)=O)ccc2O[C@@H]1CN(C)S(=O)(=O)c1ccc(F)cc1
0	i	-1.3	0	Cc1noc(C)c1NC(=O)N[C@@H]1CC[C@@H](CCNC(=O)C2CCCCC2)O[C@@H]1CO
-1	i	1.0	1	C[C@H](CO)N1C[C@H](C)[C@H](CN(C)C(=O)Nc2cccc(C(F)(F)F)c2)OCc2ccccc2-c2ccccc2C1=O
-1	i	-2.4	3	CN1[C@@H]2c3ccc(-c4ccccc4F)c(=O)n3C[C@@H]2[C@@H](CO)[C@@H]1C(=O)NCC(F)(F)F
-5	i	3.1	-10	C[C@H](CO)N1C[C@H](C)[C@H](CN(C)Cc2cccc(F)c2)Oc2ncc(-c3ccccc3F)cc2C1=O
1	i	-0.3	4	C[C@@H]1CN([C@H](C)CO)C(=O)c2cccc(NC(=O)NC3CCCCC3)c2O[C@@H]1CN(C)CC1CC1
3	i	-2.2	-2	CC(C)NC(=O)N(C)C[C@H]1Oc2cc(-c3cncnc3)ccc2S(=O)(=O)N([C@H](C)CO)C[C@H]1C
3	i	-0.7	12	CC(=O)N1[C@@H]2Cn3c(ccc(-c4ccccc4)c3=O)[C@H]1[C@@H](C(=O)NCC1CC1)[C@@H]2CO

Record cards (already shown):
C[C@@H]1CN([C@H](C)CO)C(=O)c2cccc(NC(=O)NC3CCCCC3)c2O[C@@H]1CN(C)CC1CC1 across the screens: rRNA inh HTS: 1; FGF22 binding: i; rRNA inh HTS RFP: -0.3; rRNA inh HTS OD600: 4
O=C(C[C@H]1CC[C@@H]2[C@H](COC[C@@H](O)CN2S(=O)(=O)c2ccccc2)O1)NCCN1CCCCC1 across the screens: rRNA inh HTS: -2; FGF22 binding: i; rRNA inh HTS RFP: -0.7; rRNA inh HTS OD600: 13

(cont.)
rRNA inh HTS	FGF22 binding	rRNA inh HTS RFP	rRNA inh HTS OD600	Structure
5	i	1.2	7	Cc1ccc(S(=O)(=O)Nc2ccc3c(c2)C(=O)N([C@H](C)CO)C[C@@H](C)[C@@H](CN(C)C)O3)cc1
0	i	3.3	-2	C[C@@H]1CN([C@H](C)CO)C(=O)c2cc(NC(=O)CCC(F)(F)F)ccc2O[C@@H](C)CCCCO[C@H]1CN(C)S(=O)(=O)c1ccc(Cl)cc1
0	i	1.3	-2	COC(=O)C[C@@H]1CC[C@H]2[C@@H](COc3ccc(NS(=O)(=O)c4ccccc4F)cc3C(=O)N2C)O1
3	i	0.6	0	CCCNC(=O)C[C@@H]1CC[C@H]2[C@H](COc3ccc(NC(=O)CC)cc3C(=O)N2C)O1
0	i	0.0	3	CCC(=O)N1C[C@H](C)[C@H](OC)CN(C)C(=O)c2cc(NC(=O)CC(F)(F)F)ccc2OC[C@H]1C
0	i	-1.1	9	CN(C)CCCNC(=O)C[C@@H]1CC[C@@H]2[C@H](COC[C@H](O)CN2S(=O)(=O)c2ccc(Cl)cc2)O1
-1	i	-7.5	-19	N#C[C@H]1[C@@H](c2ccccc2-c2ccccc2)[C@@H](CO)N1C(=O)Cc1ccccc1
-3	i	-1.3	9	COc1ccc2c3c([nH]c2c1)[C@@H](CO)NCC31CCN(C(=O)c2ccccc2)CC1
-1	i	0.9	-3	COc1cccc(S(=O)(=O)N[C@H]2C=C[C@H](CC(=O)NCc3ccc(F)cc3)O[C@@H]2CO)c1
6	i	3.4	18	CCCC#Cc1cnc2c(c1)C(=O)N([C@@H](C)CO)C[C@H](C)[C@H](CN(C)S(C)(=O)=O)O2
-1	i	-0.3	-11	C[C@H]1CCCCO[C@H](CN(C)C(=O)c2ccccc2)[C@@H](C)CN([C@@H](C)CO)C(=O)c2cc(NC(=O)C3CCCCC3)ccc2O1
2	i	-5.1	1	C[C@@H]1CCCCO[C@H](CN(C)Cc2ccncc2)[C@@H](C)CN([C@H](C)CO)C(=O)c2cc(NS(C)(=O)=O)ccc2O1
4	i	-1.2	10	CCOC(=O)N(C)C[C@@H]1OCc2cn(nn2)CCCC(=O)N([C@H](C)CO)C[C@@H]1C
-1	i	-0.5	0	COC(=O)[C@H]1[C@H](CO)[C@H]2Cn3c(ccc(C4=CCCCC4)c3=O)[C@H]2N1C(=O)C1CC1
-3	i	-1.9	4	Cn1cnc(S(=O)(=O)N[C@@H]2CC[C@H](CC(=O)NCC3CCCCC3)O[C@H]2CO)c1
-3	i	0.4	-8	COc1cccc(C(=O)Nc2ccc3c(c2)C(=O)N(C)C[C@@H](OC)[C@@H](C)CN(C(=O)C2CCCC2)[C@H](C)CO3)c1
2	i	0.5	6	C[C@@H]1CN([C@H](C)CO)C(=O)c2cc(C3=CCCCC3)cnc2O[C@H]1CN(C)C(=O)CN1CCOCC1
-2	i	0.8	-6	Cc1noc(C)c1NC(=O)Nc1ccc2c(c1)CC(=O)N([C@H](C)CO)C[C@H](C)[C@@H](CN(C)S(=O)(=O)c1cccs1)O2
3	i	0.8	-8	CN1CCN(C(=O)C[C@H]2CC[C@H]3[C@@H](COC[C@@H](O)CN3C(=O)Nc3ccc4c(c3)OCO4)O2)CC1
10	i	-3.7	16	Cc1cc(N2CCN(C(=O)OC(C)(C)C)C[C@@H]2C)ccc1N1CCN(Cc2ccccc2)[C@H](C)C1
3	i	-1.0	13	C[C@H]1CN([C@@H](C)CO)C(=O)c2cc(C#Cc3cccnc3)cnc2O[C@@H]1CN(C)Cc1ccccc1
-4	i	-2.2	-13	O=C(c1cccc(F)c1)N1CC2(C1)[C@@H](c1ccccc1)[C@@H](CO)N2Cc1ccccn1
5	i	9.1	-16	O=S(=O)(Cc1ccccc1)N1CCCCN2[C@H](CO)[C@H](c3ccc(-c4ccccc4)cc3)[C@@H]2C1
-4	i	0.5	1	CC(C)NC(=O)N(C)C[C@H]1Oc2c(NC(=O)Nc3ccc(F)cc3)cccc2C(=O)N([C@H](C)CO)C[C@H]1C
-3	i	2.3	-4	Cc1noc(C)c1S(=O)(=O)N(C)C[C@H]1OCCCC[C@H](C)Oc2ccc(NC(=O)Cc3ccccc3)cc2C(=O)N([C@H](C)CO)C[C@@H]1C
3	i	1.6	-6	O=C(Nc1cc(F)ccc1F)N[C@H]1CC[C@@H](CCn2cc(C3CC3)nn2)O[C@H]1CO
1	i	2.1	-2	CC(=O)N(C)C[C@@H]1Oc2ncc(-c3ccc(F)cc3)cc2C(=O)N([C@@H](C)CO)C[C@H]1C
2	i	2.1	0	CCCNC(=O)N(C)C[C@@H]1Oc2ncc(C#CC3(O)CCCC3)cc2C(=O)N([C@H](C)CO)C[C@H]1C
-9	nt	24	-24	COc1ccc(-c2ccc3c(n2)CCCN3S(=O)(=O)c2c(C)noc2C)cc1
-2	i	9.8	-7	COc1ccc(-c2ccc3c(c2)O[C@@H](CN(C)Cc2cccnc2)[C@@H](C)CN([C@@H](C)CO)S3(=O)=O)cc1
1	i	-1.4	4	CNC[C@@H]1Oc2ccc(NC(=O)CCC(F)(F)F)cc2CC(=O)N([C@H](C)CO)C[C@@H]1C
-2	i	0.1	-1	Cn1cnc(S(=O)(=O)N[C@H]2C=C[C@@H](CC(=O)NCC3CC3)O[C@H]2CO)c1
-4	i	-0.2	-8	CN1C(=O)c2cc(NC(=O)Cc3cccs3)ccc2OC[C@@H]2O[C@H](CC(=O)NCC3CC3)CC[C@@H]21
0	i	4.5	11	O=C(C[C@@H]1CC[C@@H]2[C@H](COC[C@@H](O)CN2Cc2nccs2)O1)NCc1ccccc1F
-2	i	3.0	6	COc1ccc(S(=O)(=O)N(C)C[C@H]2OCCCC[C@@H](C)Oc3ccc(NS(=O)(=O)c4ccc(Cl)cc4)cc3C(=O)N([C@H](C)CO)C[C@H]2C)cc1
-33	i	5.1	-34	COc1cccc(S(=O)(=O)N2CCCCN3[C@@H](CO)[C@@H](c4ccc(C#CCC(C)C)cc4)[C@@H]3C2)c1
4	i	-4.9	5	CCCNC(=O)N1CC2(C1)[C@H](c1ccccc1)[C@@H](CO)N2C(=O)c1ccncc1
2	i	0.3	1	CS(=O)(=O)Nc1ccc2c(c1)[C@@H]1C[C@H](CC(=O)NCc3ccccc3)O[C@H](CO)[C@@H]1O2
2	i	0.6	4	C[C@@H]1CN([C@@H](C)CO)C(=O)Cc2cc(NC(=O)C3CC3)ccc2O[C@@H]1CN(C)S(C)(=O)=O
0	i	-1.4	2	C[C@H](O)C#Cc1cnc2c(c1)C(=O)N([C@@H](C)CO)C[C@@H](C)[C@H](CN(C)C(=O)c1ccc(F)cc1)O2
1	i	1.0	9	Cc1noc(C)c1S(=O)(=O)N(C)C[C@@H]1Oc2ccc(NC(=O)Cn3cnnn3)cc2CC(=O)N([C@H](C)CO)C[C@H]1C
4	i	1.5	9	O=C(C[C@H]1C[C@@H]2c3cc(NC(=O)C4CCOCC4)ccc3O[C@@H]2[C@H](CO)O1)NCC(F)(F)F
0	i	0.3	-3	C[C@H](NC(=O)C[C@@H]1C=C[C@H](NC(=O)Cc2ccccn2)[C@@H](CO)O1)c1ccccc1
0	i	-0.8	0	Cc1ccccc1CN(C)C[C@@H]1OCc2cn(nn2)CCCC(=O)N([C@@H](C)CO)C[C@@H]1C

A section taken from the entries so far:
rRNA inh HTS	FGF22 binding	rRNA inh HTS RFP	rRNA inh HTS OD600	Structure
3	i	1.6	-6	O=C(Nc1cc(F)ccc1F)N[C@H]1CC[C@@H](CCn2cc(C3CC3)nn2)O[C@H]1CO
1	i	2.1	-2	CC(=O)N(C)C[C@@H]1Oc2ncc(-c3ccc(F)cc3)cc2C(=O)N([C@@H](C)CO)C[C@H]1C
2	i	2.1	0	CCCNC(=O)N(C)C[C@@H]1Oc2ncc(C#CC3(O)CCCC3)cc2C(=O)N([C@H](C)CO)C[C@H]1C
-9	nt	24	-24	COc1ccc(-c2ccc3c(n2)CCCN3S(=O)(=O)c2c(C)noc2C)cc1
-2	i	9.8	-7	COc1ccc(-c2ccc3c(c2)O[C@@H](CN(C)Cc2cccnc2)[C@@H](C)CN([C@@H](C)CO)S3(=O)=O)cc1
1	i	-1.4	4	CNC[C@@H]1Oc2ccc(NC(=O)CCC(F)(F)F)cc2CC(=O)N([C@H](C)CO)C[C@@H]1C
